Source: PubChem BioAssay (several laboratories)
Rce1 inhib: blocks yeast Ras-converting enzyme; Q03530; yeast membranes, quenched prenylated peptide cleavage fluorescence; calls only; 290,000 compounds, 0.27% hits;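 active = fall in fluorescence gain of 50% or more versus controls, with final raw signal at or below 3038400; inconclusive = same 50% fall but final raw signal above 3038400; inactive = fall in fluorescence gain under 50%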;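 note: plate controls were neutral control wells for no effect and wells lacking membranes for full effect; tested at 10 µM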
PABP polyA inh: blocks human PABP binding to poly(A) RNA; fluorescence polarization; inhibition, % at 35 µM; 290,000 compounds, 1% hits; AID 2014;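 active = 50% or more with normal probe brightness, or confirmed in later tests; inconclusive = above 50% with abnormal brightness, or retests that disagree; inactive = below 50% or failed in later tests; about a fifth of its hits are not listed in these tables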;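 note: calls also rest on retests at 20 µM and on dose response follow-up; controls were probe without protein and protein plus probe with vehicle; some compounds called inactive have numbers as strong as hits; many hits fall short of the cut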
Target sequence (P11940 whole entry, looked up): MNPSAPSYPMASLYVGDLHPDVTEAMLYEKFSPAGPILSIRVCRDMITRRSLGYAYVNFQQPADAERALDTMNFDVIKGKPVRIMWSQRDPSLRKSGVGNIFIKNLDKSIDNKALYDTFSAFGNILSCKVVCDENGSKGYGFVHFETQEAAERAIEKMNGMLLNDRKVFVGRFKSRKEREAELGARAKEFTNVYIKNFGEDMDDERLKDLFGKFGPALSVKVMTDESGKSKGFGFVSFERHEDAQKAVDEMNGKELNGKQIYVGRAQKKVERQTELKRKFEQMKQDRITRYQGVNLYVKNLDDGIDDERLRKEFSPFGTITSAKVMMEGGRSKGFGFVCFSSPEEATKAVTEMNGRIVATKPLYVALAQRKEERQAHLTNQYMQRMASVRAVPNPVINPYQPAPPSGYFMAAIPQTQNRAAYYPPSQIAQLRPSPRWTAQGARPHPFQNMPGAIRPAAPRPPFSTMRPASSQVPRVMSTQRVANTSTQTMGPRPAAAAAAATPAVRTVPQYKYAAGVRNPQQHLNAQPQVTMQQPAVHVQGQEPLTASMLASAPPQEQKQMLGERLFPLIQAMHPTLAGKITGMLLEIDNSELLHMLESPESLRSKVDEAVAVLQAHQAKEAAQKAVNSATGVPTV
Env fusion inh: HIV envelope-mediated fusion inhibition; HeLa-JRFL Env/CEM21 cell fusion, luciferase; inhibition, % at 12.3 µM; 360,000 compounds, 1.1% hits; AID 651610;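 active = mean replicate inhibition score of at least 50 and every replicate individually at or above 50; inconclusive = only one of the two criteria met; inactive = mean below 50 and not all replicates reaching 50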;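 note: 0% = plate neutral controls and 100% = maraviroc near 300 nM; one replicate is shown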
CSC inhib: blocks cancer stem cells; inhibition, % at 7.5 µM; 300,000 compounds, 1.1% hits; cancer stem cell-like cells viability, luminescence; AID 2717;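 active = mean at 75% or more and at least half the replicates too; inconclusive = mean and replicates disagree; tested in HMLE shEcad cells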;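 note: 0% = median of negative and 100% = median of positive control wells; the first replicate is given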
eIF4H FP inh: inhibitors of RNA binding by human eIF4H; inhibition, % at 35 µM; Q15056; 290,000 compounds, 0.94% hits; eIF4H fluorescence polarization binding assay;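 active = 50% or more with normal probe brightness, or confirmed in later tests; inconclusive = above 50% with abnormal brightness, or retests that disagree; inactive = below 50% or failed in later tests; about a fifth of its hits are not listed in these tables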;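 note: calls also rest on retests at 20 µM and on dose response follow-up; 0% = protein and probe with vehicle and 100% = probe without protein; strong numbers were not always called active; many hits fall short of the cut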
Yeast UUG start: yeast start codon fidelity modulation. S. cerevisiae UUG-firefly luciferase reporter, luminescence/redox ratio. activity score, % at 18.7 µM. 350,000 compounds, 0.13% hits. AID 602363;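 active = replicate mean at a twofold rise or more, about +100% in these data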;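 note: firefly luciferase made from a UUG start codon reports start codon fidelity; reporter light over untreated wells divided by growth signal over untreated wells; some hits fall short of that in this replicate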
MT1-MMP act inh: blocks activation of human MT1-MMP; P50281; HT1080 RFP-PRO-GFP cells, GFP/RFP ratio fluorescence, overnight; percent of plate control window, DMSO zero; GFP/RFP ratio change, % at 20 µM; 360,000 compounds, 0.061% hits; AID 651647;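 active = GFP/RFP ratio change of at least 30% with cell ATP level not reduced by more than half and red fluorescence within 50% of control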; note: strong numbers were not always called active
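Test system: HT1080 RFP-PRO-GFP cells; Benchmarks: DMSO and RFP-L50D-GFP cell wells; Timing: cells overnight before dosing, compound overnight, 37 °C, 5% CO2; Compound: one 20 µM compound dose with 1% DMSO; Read-out: GFP/RFP fluorescence ratio.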
eIF4H FP inh retest: further read-out of eIF4H FP inh, marked with its call; inhibition, %; compound at 20 µM; confirmation average;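 mean of two retest wells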
PABP polyA inh retest: recorded beside PABP polyA inh, whose call it bears; inhibition, %; compound at 20 µM; confirmation repeats;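 mean of two retest wells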
MT1-MMP act inh RFP: recorded beside MT1-MMP act inh, whose call it bears; RFP signal change, %; measured here: RFP expression control read;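 0 = vehicle wells; hits needed this value within 50% of zero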
* = called active by the depositor; i = inactive; ? = inconclusive; / = no result given; & = joins results of further samples. Some of the compounds tested. The share of hits here may be higher or lower than overall.

SMILES	Rce1 inhib	PABP polyA inh	Env fusion inh	CSC inhib	eIF4H FP inh	Yeast UUG start	MT1-MMP act inh	MT1-MMP act inh RFP	others
COc1ccc([C@H]2/C=C\CN(Cc3ccc(N(C)C)cc3)[C@@H](C)C(=O)N2Cc2ccc(F)cc2)cc1	i	/	13	16	/	-5	5	-4
C#CC(C)(CC)NC(=O)Cn1nnc(-c2ccc(S(C)(=O)=O)cc2)n1 (centres undefined)	i	-4	/	-8	-2	-18	2	2
CCCCNc1nc(Nc2ccc(C)c(Cl)c2)c2cnn(C)c2n1	i	12	11	82*	-11	-14	-9	-13
COc1cccc(CN2CC(C(=O)N(C)CCCC3CCCC3)CCC2=O)c1 (centres undefined)	i	-6	-3	15	-6	0	1	-1
Cc1cc(C)cc(OC(C)c2ccnc3nc(/N=C/N(C)C)nn23)c1 (centres undefined)	i	-9	17	-17	-2	-12	-1	-1
Cc1ccccc1NC(=O)Nc1nc(C(N)C2CCCCC2)cs1 (centres undefined)	/	/	4	/	/	-2	-5	-2
CCOc1ccc(CCN2C(=S)N([C@@H](CC(C)C)CN3CCCC3CN3C(=S)NC[C@@H]3CC(C)C)C[C@@H]2CC(C)C)cc1 (some centres undefined)	/	/	-2	/	/	-26	-2	-15
Cc1cc(C)nc(NC(=O)/C=C/c2ccc(Cl)cc2Cl)c1	i	-7	/	57	-1	-16	-42	-34
O=S(=O)(NCC(c1ccco1)N1CCOCC1)c1ccc(Cl)cc1 (centres undefined)	i	18	/	1	2	5	1	4
CCOc1ccc(-n2c(SCC(=O)Nc3ccc(OC)cc3)nc3sc4c(c3c2=O)CCN(C)C4)cc1	i	-14	-5	-11	-15	-26	2	1
CNc1ccccc1-c1nc2ccccc2n(C)c1=O	/	-8	/	-7	-1	-22	7	4
Cc1cccc(C)c1OCC(O)CN1CCC(CN2C(=O)c3cccc4cccc(c34)C2=O)CC1 (centres undefined)	i	-11	?	-5	4	-17	-3	-15
Cc1nn(C)c(C(=O)Nc2ccn(Cc3ccccc3F)n2)c1[N+](=O)[O-]	i	-6	-19	4	-6	-9	8	12
CCN1C(=O)/C(=C2\C=Cc3ccccc3N2CC)SC1=S	i	-11	/	41	-10	/	99*	6.2*
CN1/C(=C\C(=O)CSc2nncn2C)C(C)(C)c2ccccc21	i	-11	-29	-6	5	-5	4	3
Cc1ccc(-n2nc3c(=O)n(CCCC(=O)NCc4ccccc4C)nc(C)c3c2C)cc1	i	-6	34	9	-2	-12	6	-3
O=C(C1CC1)N1CCN(Cc2ccccc2)CC1	i	/	1	-9	/	/	-1	0
CN(Cc1ccccc1)C(=O)c1[nH]cnc1C(=O)Nc1ccccc1	/	/	-16	-23	/	5	5	0
Cc1ccc(-c2ccc(CO)o2)cc1N	i	-5	15	-15	0	/	-6	-3
CCCCOc1ccc(/C=C2/Sc3ccccc3C2=O)cc1	i	-6	-33	-14	2	-17	24	26

Part of the list above in order of length of the SMILES, smallest number first:
SMILES	Rce1 inhib	PABP polyA inh	Env fusion inh	CSC inhib	eIF4H FP inh	Yeast UUG start	MT1-MMP act inh	MT1-MMP act inh RFP	others
O=C(C1CC1)N1CCN(Cc2ccccc2)CC1	i	/	1	-9	/	/	-1	0
CNc1ccccc1-c1nc2ccccc2n(C)c1=O	/	-8	/	-7	-1	-22	7	4
Cc1ccccc1NC(=O)Nc1nc(C(N)C2CCCCC2)cs1 (centres undefined)	/	/	4	/	/	-2	-5	-2
CN1/C(=C\C(=O)CSc2nncn2C)C(C)(C)c2ccccc21	i	-11	-29	-6	5	-5	4	3
CCOc1ccc(-n2c(SCC(=O)Nc3ccc(OC)cc3)nc3sc4c(c3c2=O)CCN(C)C4)cc1	i	-14	-5	-11	-15	-26	2	1
CCOc1ccc(CCN2C(=S)N([C@@H](CC(C)C)CN3CCCC3CN3C(=S)NC[C@@H]3CC(C)C)C[C@@H]2CC(C)C)cc1 (some centres undefined)	/	/	-2	/	/	-26	-2	-15

(more compounds)
SMILES	Rce1 inhib	PABP polyA inh	Env fusion inh	CSC inhib	eIF4H FP inh	Yeast UUG start	MT1-MMP act inh	MT1-MMP act inh RFP	others
O=C(NN=Cc1ccccc1Cl)c1ccccc1	/	/	-31	/	/	-25	-2	-6
COc1cc(NC(=O)CCc2c(C)[nH]c(=O)c(C#N)c2C)cc(OC)c1	i	11	8	-8	-1	-19	5	4
O=C(C1CCCN1S(=O)(=O)c1cccc2nsnc12)N1CCCCC1 (centres undefined)	i	-8	-18	-14	3	5	13	1
COc1cccc(S(=O)(=O)N(C)C[C@@H]2OCc3cnnn3CCCC(=O)N([C@@H](C)CO)C[C@H]2C)c1	/	/	-5	/	/	-9&7	5	5
O=C1CN(C(=S)Nc2ccccc2Cl)CCN1	i	3	24	3	0	-25	7	-1
CSc1ccc(/C=C/C(=O)Nc2ccccc2)cc1	i	-13	-280	38	5	-31	4	0
COc1cc2c(C(=O)O)c(C)n(-c3ccccc3)c2c2ccccc12	i	3	4	-8	5	-11	-5	-3
CC1CCN(C(=O)C2CCCN(S(=O)(=O)c3cccc4nsnc34)C2)CC1 (centres undefined)	i	8	14	-14	3	-1	1	2
Clc1cccc(-c2ccc3ncnc(NCc4cccs4)c3c2)c1	/	/	-7	/	/	-8	4	-8
COc1ccccc1N1CCN(C(=O)C(F)F)CC1	i	-2	/	-10	-15	-8	2	3
CC(NC(=O)c1ccccc1)C(=O)N/N=C/c1ccccc1 (centres undefined)	i	-4	-2	/	0	-1	-1	3
O=c1cc(O)c2sc(Nc3ccc(Cl)c(F)c3)nc2[nH]1	i	9	31	20	1	10	-6	5
Cc1cc(OCc2cc(C(=O)N(C)Cc3nonc3C)no2)cc(C)c1Cl	i	11	0	26	-5	-16	1	-5
CCCC(=O)NC(=S)Nc1ccc(S(=O)(=O)Nc2ccc(OCC)cc2)cc1	i	-5	-6	-15	-13	-9	2	-12
COc1ccc(C)cc1NC(=O)C1CCCN(S(=O)(=O)c2cccc3cccnc23)C1 (centres undefined)	i	0	/	/	-5	8	0	3
O=C(Nc1ccc(OCc2ccccc2)cc1)Nc1nnc([C@@H]2C[C@H](O)[C@@H](CO)O2)s1	/	/	9	/	/	-1	4	1
COCCNC(=S)N1CCN(c2cccc(C(F)(F)F)c2)CC1	i	-2	19	-12	33	/	1	-6
CCn1cc(CN2CCCC(CNC(=O)COc3ccccc3OC)C2)c(C)n1 (centres undefined)	i	6	2	-7	5	13	4	7
CC(=O)C(C)Oc1cc(C)cc2oc(=O)c(C)c(C)c12 (centres undefined)	i	-1	-36	-18	-5	/	3	0
O=C(Nc1cccc(S(=O)(=O)N2CCCCC2)c1)c1ccccc1NS(=O)(=O)c1ccc(F)cc1	i	10	39	50	-3	/	-13	-21
O=C(NCc1cccs1)C1CCN(S(=O)(=O)c2cccs2)CC1	i	1	-7	-5	-1	-1	-1	-3
COc1ccccc1CCNC(=O)Cc1cccs1	i	-8	-25	-6	5	-30	-2	4
CCOc1ccc(NC2OCC(O)C(O)C2O)c([N+](=O)[O-])c1 (centres undefined)	i	-9	-2	2	-10	/	3	3
COc1ccc(NC(=O)CCNS(=O)(=O)c2cccc3nsnc23)cc1OC	i	-2	/	-1	-3	/	1	-1
COc1cccc(CNC(=O)CCc2ccc(OC)c(OC)c2)c1	i	-2	11	-8	-6	-12	-1	2
CC[C@]12c3[nH]c4ccc(Cl)cc4c3CCN1C(=O)[C@@H](CC(=O)NCc1ccc(OC)c(OC)c1)C[C@@H]2C(=O)N1CCN(C(=O)c2ccco2)CC1	/	/	2	/	/	-11	-1	-1
C/C(=N\NC(=S)NCCc1ccccc1)c1ccc(Cl)cc1	i	-10	-6	-5	-5	-5	3	3
COc1c(F)c(F)c(C(=O)Nc2ccc(N3CCN(Cc4ccccc4)CC3)cc2)c(F)c1F	i	8	65*	/	11	/	4	-11
Cc1noc(C)c1C(=O)N(CC(=O)NC1CCCC1)Cc1ccccc1F	i	-4	/	-3	-16	-15	0	2
N#Cc1ccsc1NC(=O)CSc1ncn[nH]1	i	3	-18	-2	8	-14	-1	2
Cc1ccc(-c2n[nH]c(=O)c3ccccc23)cc1S(=O)(=O)NCC1CCCO1 (centres undefined)	i	-1	-6	-20	2	6	-1	-2
OC1(C2(O)CC(c3ccccc3)ON2)CCCCC1 (centres undefined)	i	-2	/	5	-3	-3	-3	-2
Cc1ccc(OCCNC(=O)[C@H]2O[C@@H](n3cnc4c(N)ncnc43)[C@H](O)[C@@H]2O)cc1C	/	/	-20	/	/	2	3	1
CCC(SC1=N/C(=C/c2ccccc2)C(=O)N1c1ccccc1)C(=O)Nc1cc(C)on1 (centres undefined)	i	0	3	9	-10	-15	-26	-17
COc1cc2c(cc1OC)C(c1ccc(C(F)(F)F)cc1)CC(=O)N2 (centres undefined)	/	4	-5	-11	7	0	7	0
COc1ccc(C)cc1NC(=O)COC(=O)c1c(C)nn(-c2ccccc2)c1C	/	/	2	/	/	-12	6	-10
O=C1C=C(c2ccc(Cl)nc2)C[C@@H](c2ccc3c(c2)OCO3)C1	/	/	-7	49	/	-21	3	0
CCOC(=O)N1CCN(C(=O)C2CCC(=O)N(CCCc3ccccc3)C2)CC1 (centres undefined)	i	-7	-8	-12	-6	-5	0	0
CCOC(=O)CN1C(=O)N[C@H](c2ccc(Br)cc2)C(C(C)=O)=C1C	i	-4	12	24	9	-9	0	0
Cc1noc(C)c1S(=O)(=O)N1CCC(C(=O)O)CC1	/	/	/	-9	/	-2	2	2
COC(=O)c1ccccc1-c1ccc(/C=C2\C(=O)N(c3ccccc3)N=C2c2ccccc2)o1	i	-7	-12	-6	-5	-27	-1	5
CN1OC[C@@H]2CN(C(=O)c3cccc4ccccc34)[C@H](c3ccc(N4CCCCC4)cc3)C[C@@H]21	/	/	-3	/	/	0	0	4
CCc1ccccc1NC(=O)COc1ccc2oc(-c3ccc(OC)cc3)cc(=O)c2c1	i	10	-14	-15	50	-13	10	7	eIF4H FP inh retest=1;PABP polyA inh retest=-8
O=C(CN1CCCCCC1)Nc1ccccc1Oc1ccccc1	i	-3	23	80*	-5	-11	-2	-7
CC(C)c1ccc(C(CC(=O)O)NC(=O)c2cccs2)cc1 (centres undefined)	i	0	9	4	2	-4	0	2
O=C(COC(=O)c1ccc(O)cc1O)Nc1cccc2ccccc12	/	/	2	-5	/	7	3	-5
COc1ccc(C(=O)NCc2nnc(SCC(=O)c3ccccc3)n2C)cc1OC	i	/	-11	-3	/	-14	0	1
CCn1c(SCC(=O)N(C)C)nc2cc(S(=O)(=O)N3CCOCC3)ccc21	i	/	1	-2	/	-12	-4	5
Cc1ccc2c(c1)C(c1ccccc1)N(C(=O)c1ccc3c(c1)OCO3)CC(=O)N2 (centres undefined)	i	-3	33	3	-1	12	-7	-1
O=C(c1noc2c1CCCC2)N1CCOCC1	i	-12	/	-5	5	-18	2	7

More records:
SMILES	Rce1 inhib	PABP polyA inh	Env fusion inh	CSC inhib	eIF4H FP inh	Yeast UUG start	MT1-MMP act inh	MT1-MMP act inh RFP	others
CCOCCCNC(=O)C(c1ccccc1)N(Cc1cccs1)C(=O)CNC(C)=O (centres undefined)	i	-7	/	8	6	/	1	2
COc1ccc(S(=O)(=O)N2CCCOC2CNC(=O)C(=O)NCCCn2ccnc2)cc1OC (centres undefined)	i	-10	0	4	-6	/	0	3
CN1c2ccsc2/C(=N/Nc2ccccc2)CS1(=O)=O	i	6	-15	-2	3	-29	-2	4
O=C(Nc1cccc(C2OCCCO2)c1)c1cccs1	i	6	11	-7	-8	-23	-2	4
